RGS16-Gao: regulators of human RGS16-Galphao interaction; 220,000 tested, 0.38% active; bead-based flow cytometry RGS16-Galphao binding, fluorescence; actives lie on both sides; binding response (% of control), % at 10 µM;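 active = below 25% or above 175%, edge rows of some plates excepted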;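 note: Galphao activated by GDP with aluminum fluoride before binding; 100% = wells without compound and 0% = beads without RGS; some results beyond the cut were filed as inactive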
Target sequence (O15492 whole entry, looked up): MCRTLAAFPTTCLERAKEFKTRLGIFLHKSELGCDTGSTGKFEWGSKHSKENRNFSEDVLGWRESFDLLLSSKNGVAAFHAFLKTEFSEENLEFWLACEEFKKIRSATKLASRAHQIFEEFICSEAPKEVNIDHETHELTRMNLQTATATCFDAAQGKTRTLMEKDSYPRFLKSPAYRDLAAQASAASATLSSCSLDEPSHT
Target sequence (P09471 whole entry, looked up): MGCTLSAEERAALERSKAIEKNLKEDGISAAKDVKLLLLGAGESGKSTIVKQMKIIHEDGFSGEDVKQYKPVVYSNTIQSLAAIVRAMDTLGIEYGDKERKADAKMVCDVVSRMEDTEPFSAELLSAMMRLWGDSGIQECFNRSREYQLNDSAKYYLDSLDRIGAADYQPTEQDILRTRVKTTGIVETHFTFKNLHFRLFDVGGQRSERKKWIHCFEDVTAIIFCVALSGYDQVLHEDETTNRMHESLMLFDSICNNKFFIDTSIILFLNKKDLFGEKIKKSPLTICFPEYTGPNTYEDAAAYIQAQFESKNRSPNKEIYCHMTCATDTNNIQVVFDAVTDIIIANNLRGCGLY
PKD1 kinase inh: inhibitors of human PKD1 kinase; PKD1 kinase fluorescence polarization assay; inhibition, %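 (about 10 µM by stock and volumes)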; 200,000 tested, 0.056% active;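 active = inhibition of 50% or more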;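 note: controls were vehicle for no effect and a reference inhibitor for full effect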
GALR2 ag: activates the human galanin receptor 2; O43603; GALR2-expressing cells, agonist activation read-out; activation, %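 (tested at 5 µM)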; 140,000 tested, 0.48% active; AID 803;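 active = above mean plus 3 SD of all compounds, about 5% in these data, not always enough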;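 note: 0% = vehicle buffer wells and 100% = reference agonist at full effect; tested in CHO reporter cells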
Target sequence (O43603 whole entry, looked up): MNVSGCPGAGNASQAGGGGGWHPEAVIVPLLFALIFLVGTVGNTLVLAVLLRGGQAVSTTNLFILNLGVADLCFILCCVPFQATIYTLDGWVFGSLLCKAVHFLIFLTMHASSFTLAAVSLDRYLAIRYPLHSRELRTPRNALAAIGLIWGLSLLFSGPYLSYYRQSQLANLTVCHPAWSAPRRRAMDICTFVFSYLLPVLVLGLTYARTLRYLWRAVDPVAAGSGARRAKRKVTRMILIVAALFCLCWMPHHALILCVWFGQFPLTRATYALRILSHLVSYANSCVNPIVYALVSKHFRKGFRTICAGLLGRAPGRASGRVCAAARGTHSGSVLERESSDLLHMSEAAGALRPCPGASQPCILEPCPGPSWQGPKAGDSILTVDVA
HSV augment: increases HSV replication in cells; maximum fold increase; 220,000 tested, 0.005% active; AID 1956; HSV replication augmentation in cells, fold increase;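 active = peak rise of 1.5-fold or more in the series; tested in PC3 cells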;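 note: first round at 10 µM; read as green reporter fluorescence; hits show the peak of a series up to 25 µM; 1 = signal of infected wells without compound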
INS promoter inh: TRM-6 insulin promoter activity inhibition. TRM-6 cells (human fetal islet line), insulin promoter-eGFP reporter, imaging; reporter expression induced with tamoxifen. inhibition, % at 2 µM. 130,000 tested, 0.9% active. AID 1273;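 active = inhibition above the mean plus 3 SD, with well images judged a real hit on visual review, cut at about 60% in these data, passing the limit was not always enough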
INS promoter inh cell count: further read-out of INS promoter inh, marked with its call; normalized cell count, %; measured here: cell count, toxicity; reference of the scale not given here;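 cells exposed to compound for 48 h; stained nuclei by imaging scaled within each plate; lower means fewer cells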
HSV augment primary fold: recorded beside HSV augment, whose call it bears; fold increase; compound at 10 µM; measured here: primary screen fold increase 10 uM; tested in PC3 cells;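 GFP signal in the first replicate; 1 = infected wells without compound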
Starred values were filed as active, the others as inactive; i = inactive; . = not tested or not shown.

SMILES | RGS16-Gao | PKD1 kinase inh | GALR2 ag | HSV augment | HSV augment primary fold | INS promoter inh | INS promoter inh cell count
CCCNC(=O)C1CCN(c2ccc(S(=O)(=O)N3CCOCC3)cc2Cl)CC1 | 104 | 1 | -1.2 | i | 1.2 | 62 | 98
CC(C)OC(=O)CSc1nc(C(C)C)nc2ccccc12 | 114 | -5 | . | i | 0.85 | 0 | 119
Cc1sc2ncn(CC(=O)NCC(=O)N(C)Cc3ccccc3)c(=O)c2c1C | 99 | -4 | -2.0 | i | 0.69 | -14 | 200
CSc1nc(Cl)cc(Nc2ccc(O)cc2)n1 | 98 | -4 | . | i | 0.9 | . | .
Nc1cc(=O)[nH]c(SCc2cccc(Cl)c2)n1 | 81 | -5 | -1.3 | i | 0.93 | 6 | 110
O=C(Cc1c(C(=O)O)[nH]c2ccc(Cl)cc12)Nc1ccc2c(c1)OCCO2 | 115 | -10 | -2.6 | i | 1 | -78 | 90
O=C(Cc1ccccc1)c1c[nH]c(C(=O)O)c1 | 101 | -3 | . | i | 1 | . | .
Nc1nc(-c2cccnc2)nn1C(=O)c1ccc(Cl)cc1 | 88 | -2 | . | i | 1 | . | .
CCCNC(=O)c1ccccc1NC(=O)C1COc2ccccc2O1 (stereo not given) | 103 | -10 | -1.1 | i | 0.95 | -71 | 76
Cc1ccc(-c2noc(CSc3nnc(Cc4cccs4)n3-c3ccccc3)n2)cc1 | 104 | -9 | -2.7 | i | 1 | . | .
Cc1ccc(C(=O)Oc2ccccc2N2CCOCC2)cc1 | 96 | . | . | i | 0.96 | . | .
CCOC(=O)c1c(NC(=O)C2(C)Cc3ccccc3C(=O)O2)sc2c1CCCC2 (stereo not given) | 100 | -11 | -1.0 | i | 0.89 | -31 | 77
O=C(NCc1ccccc1)NC1(C(=O)Nc2ccc3c(c2)OCCO3)CCCCC1 | 101 | -9 | -1.5 | i | 1.2 | 7 | 109
COC(=O)c1sccc1S(=O)(=O)Nc1ccc(Cl)cc1 | 102 | . | . | i | 1.2 | . | .
Cc1ccc(N(C(C)C(=O)O)S(=O)(=O)c2c(C)[nH]c(=O)[nH]c2=O)cc1 (stereo not given) | 102 | -11 | . | i | 1.1 | . | .

Reprinted from the part before: 4 compounds; new compounds follow.
SMILES | RGS16-Gao | PKD1 kinase inh | GALR2 ag | HSV augment | HSV augment primary fold | INS promoter inh | INS promoter inh cell count
CCOC(=O)c1c(NC(=O)C2(C)Cc3ccccc3C(=O)O2)sc2c1CCCC2 (stereo not given) | 100 | -11 | -1.0 | i | 0.89 | -31 | 77
O=C(NCc1ccccc1)NC1(C(=O)Nc2ccc3c(c2)OCCO3)CCCCC1 | 101 | -9 | -1.5 | i | 1.2 | 7 | 109
COC(=O)c1sccc1S(=O)(=O)Nc1ccc(Cl)cc1 | 102 | . | . | i | 1.2 | . | .
Cc1ccc(N(C(C)C(=O)O)S(=O)(=O)c2c(C)[nH]c(=O)[nH]c2=O)cc1 (stereo not given) | 102 | -11 | . | i | 1.1 | . | .
CCCCc1ccc(C(=O)NC(C(=O)O)C(C)C)cc1 (stereo not given) | 105 | -5 | -1.9 | i | 0.84 | 67 | 77
COCC(C)Nc1ccc(S(=O)(=O)N2CCCC2)cc1[N+](=O)[O-] (stereo not given) | 98 | -5 | . | i | 0.89 | -30 | 140
S=C(Nc1cccc2ccccc12)NC1CCCCC1 | 100 | -1 | . | i | 1 | -72 | 138
Cc1cc2cc(CN(CCCN3CCOCC3)C(=O)NC3CCCCC3)c(=O)[nH]c2cc1C | 103 | 1 | -1.5 | i | 0.95 | -43 | 131
CCO[C@H]1OC(C(=O)N2CCOCC2)=C[C@@H](c2cn(C(C)=O)c3ccccc23)[C@@H]1CCCO | 99 | 4 | . | i | 0.7 | . | .
Cc1ccc(O)c(C2=NCCNC(C(F)(F)C(F)F)=C2)c1 | 99 | -1 | -1.9 | i | 0.72 | 4 | 83
Cc1cc(C)n(-c2nc3c(c(=O)[nH]c(=O)n3C)n2CCc2ccccc2)n1 | 98 | -10 | -1.6 | i | 0.95 | . | .
CC(C)c1ccccc1OCC(=O)NN1C(=O)c2ccccc2C1=O | 109 | 9 | . | i | 1 | 40 | 141
O=C(Nc1nc(-c2ccc(-c3ccccc3)cc2)cs1)C1=COCCO1 | 99 | 0 | 0.5 | i | 0.91 | . | .
COC(=O)c1ccc(C(=O)OC)c(NC(=S)N2CCCCC2)c1 | 94 | -6 | -0.2 | i | 0.81 | . | .
Cc1nn(-c2ccccc2)c(C)c1C(=O)OCC(N)=O | 101 | -6 | . | i | 0.94 | 50 | 136
O=C(CN1CCN(C2CCCCC2)CC1)Nc1ccccc1N1CCCCC1 | 104 | -2 | -1.0 | . | . | 25 | 108
COc1ccc2[nH]c(C)c(CCNC(=S)Nc3cccc(C)c3)c2c1 | 107 | -17 | -0.8 | . | . | -46 | 35
CCCCC(=O)N(CCOC)c1nnc(-c2ccccc2C)s1 | 102 | 2 | . | i | 0.88 | . | .
COC(=O)c1cccc(NC(=O)C(C)N2C(=O)c3ccccc3C2=O)c1 (stereo not given) | 105 | -4 | -1.5 | i | 1 | . | .
COc1ccc(O)c(-c2[nH]ncc2C(=O)c2ccccc2)c1 | 101 | -3 | -1.5 | i | 0.99 | 48 | 139
CCc1cccc(OC2OC(CO)C(O)C(O)C2NC(C)=O)c1 (stereo not given) | 105 | -9 | . | i | 1 | -75 | 70
COc1cccc(OCC(O)CN2CC(C)CC(C)C2)c1 (stereo not given) | 109 | 1 | -1.9 | i | 1 | . | .
O=C(CSc1ccc(F)cc1)NC12CC3CC(CC(C3)C1)C2 | 102 | -5 | . | i | 0.97 | . | .
CCc1ccc(NC(=O)c2cc(C)on2)cc1 | 103 | 9 | -2.0 | i | 0.97 | -19 | 113
CN(CCc1ccccn1)C(=O)CCC1CCCN(C(=O)c2ccccn2)C1 (stereo not given) | 106 | 1 | . | i | 1.1 | . | .
O=C(CSc1ccc(C(F)(F)F)cc1[N+](=O)[O-])Nc1ccccc1 | 101 | -16 | -1.1 | i | 1 | 27 | 54
O=C(Oc1ccccc1C(=O)Nc1ccccc1)c1ccccc1Br | 91 | -1 | 0.3 | . | . | 8 | 90
Cc1cc(C)cc(OCC(=O)NCC2CCCO2)c1 (stereo not given) | 113 | -1 | -2.6 | i | 0.73 | 7 | 51
Cc1ccc(CSc2nc3ccccc3c(=O)n2CCCC(=O)NCc2ccco2)cc1 | 95 | -6 | -2.6 | i | 0.87 | 17 | 164
CCCc1nc2sc3ccccc3c(=O)c2c(=O)n1CCOC | 101 | 1 | -3.6 | . | . | -14 | 186
CCC1CCCCN1C(=O)CCc1nnc(Cc2cc(OC)ccc2OC)o1 (stereo not given) | 128 | . | . | i | 0.85 | . | .
Cc1ccc(C(c2nnnn2CS(=O)(=O)c2ccc(C)cc2)N2CCC(C)CC2)cc1 (stereo not given) | 104 | 10 | 1.1 | i | 1 | 11 | 87
CS(=O)(=O)N1CCC(C(=O)O)CC1 | 113 | -6 | -1.4 | i | 1.2 | 19 | 90
COc1ccc2cc(CN(CC3CCCO3)S(=O)(=O)c3ccccc3)c(=O)[nH]c2c1 (stereo not given) | 103 | -4 | -0.8 | i | 0.88 | -4 | 73
CCN1C(=O)CC(NNC(=O)c2ccc(Cl)cc2)C1=O (stereo not given) | 101 | -3 | -1.2 | i | 0.94 | 25 | 132
CCCn1c(O)c(N=Nc2ccc3ccccc3n2)c2ccccc21 | 107 | -8 | 0.4 | i | 1.1 | . | .
C=CCOc1ccc(/C=N/NC(=O)C(C)Sc2ccccn2)cc1OC (stereo not given) | 96 | 0 | 1.5 | i | 0.96 | 37 | 131
CC(=O)Nc1ccc(NC(=O)C(OC(=O)c2ccccc2)C(OC(=O)c2ccccc2)C(=O)O)cc1 (stereo not given) | 96 | 3 | . | i | 1.1 | . | .
Cn1cccc1/C=N/NC(=O)c1ccn[nH]1 | 93 | -3 | -1.9 | i | 0.89 | . | .
O=C(CSc1nc2ncc(Cl)cc2[nH]1)NCCc1ccc(F)cc1 | 96 | -3 | . | i | 0.85 | -157 | 129
CCSc1nnc(NC(=O)[C@H](C)N2C(=O)C3CC=CCC3C2=O)s1 (stereo not given in full) | 98 | 4 | . | i | 0.93 | . | .
Cc1cccc(NC(=O)c2cc(=O)c3ccccc3o2)n1 | 122 | -9 | -0.1 | i | 1.1 | -17 | 63
O=Cc1cn(CC(=O)NCC2CCCO2)c2ccccc12 (stereo not given) | 108 | 1 | -1.6 | i | 1.1 | -235 | 78
Cc1ccccc1CC1(CO)CCCN(C(=O)CCC(=O)c2ccccc2)C1 (stereo not given) | 100 | 0 | . | i | 1 | . | .
O=C(/C=C/c1ccc(Cl)cc1Cl)NC(=S)Nc1ccc(CN2CCOCC2)cc1 | 125 | -13 | 0.1 | i | 1.1 | -4 | 78
COc1ccc(NC(=S)NCCN2CCOCC2)c(OC)c1 | . | -14 | -0.2 | i | 0.98 | 66 | 38
O=C(COc1cccnc1[N+](=O)[O-])N1CCN(S(=O)(=O)c2ccccc2)CC1 | 43 | 5 | 1.5 | i | 0.94 | -30 | 70
C1CCCC(NC2=NCCO2)CCC1 | 97 | . | . | i | 0.88 | . | .
COC(=O)c1cc(C(=O)c2ccc(C(C)(C)C)cc2)c[nH]1 | 101 | -3 | . | i | 0.86 | 0 | 89

Three compounds already listed, sorted by molar mass, high to low.
SMILES | RGS16-Gao | PKD1 kinase inh | GALR2 ag | HSV augment | HSV augment primary fold | INS promoter inh | INS promoter inh cell count
O=C(CSc1ccc(C(F)(F)F)cc1[N+](=O)[O-])Nc1ccccc1 | 101 | -16 | -1.1 | i | 1 | 27 | 54
Cc1cccc(NC(=O)c2cc(=O)c3ccccc3o2)n1 | 122 | -9 | -0.1 | i | 1.1 | -17 | 63
CCc1ccc(NC(=O)c2cc(C)on2)cc1 | 103 | 9 | -2.0 | i | 0.97 | -19 | 113

Carrying on:
SMILES | RGS16-Gao | PKD1 kinase inh | GALR2 ag | HSV augment | HSV augment primary fold | INS promoter inh | INS promoter inh cell count
CCN1CCCC1CNC(=O)c1cc2c(C)nc3ccccc3c2o1 (stereo not given) | 98 | -1 | -1.1 | i | 0.92 | 39 | 158
O=C(/C=C/c1cccs1)NC1CCS(=O)(=O)C1 (stereo not given) | 107 | -3 | . | i | 0.9 | . | .
Cc1ccc(-n2nnc(-c3cc4ccccc4n3C)n2)cc1 | 111 | 3 | . | i | 0.96 | . | .
CC1=NOC2(C1)/C(=N/O)CCC/C2=N\O (stereo not given) | 105 | -17 | -1.1 | i | 0.93 | 16 | 99
Cc1cc(N/N=C/c2ccccc2)nc(N2CCOCC2)n1 | 108 | . | . | i | 1.2 | . | .
CCCCC(=O)Nc1nn(C)c2nc3c(C)cccc3cc12 | 101 | -13 | -0.5 | i | 1 | -36 | 54
O=C1CSC(c2ccccc2[N+](=O)[O-])N1c1ccc(O)cc1 (stereo not given) | 98 | 7 | . | i | 0.89 | . | .
O=S(=O)(c1ccc(C2CCCCC2)cc1)N1CCOCC1 | 106 | -1 | -2.0 | i | 1.1 | 0 | 67
CCC(=O)N/N=C(\C)CC(=O)Nc1ccc(Cl)cc1 | 109 | -2 | -1.7 | i | 0.95 | -50 | 101
Cn1nnnc1SCc1csc(C2C(C#N)=C(N)OC3=C2C(=O)CCC3)c1 (stereo not given) | 104 | -3 | . | i | 1 | 24 | 113
COc1cc(/C=C\C(=O)OCn2nnc3ccccc3c2=O)cc(OC)c1OC | 105 | 0 | . | i | 1 | 29 | 138
O=c1c2c3c(sc2ncn1/N=C/c1ccncc1)CCCC3 | 96 | -7 | . | i | 0.93 | -53 | 89
CC(C)N(Cc1ccccc1)C(=S)NC1CCCCC1 | 104 | 2 | . | i | 0.9 | . | .
COc1ccc(CCNC(=O)C(=O)NCc2ccccc2C)cc1OC | 101 | 0 | . | i | 1.2 | . | .
CC(=O)NC(C)c1nc2ccccc2n1Cc1ccccc1F (stereo not given) | 103 | -9 | -0.2 | i | 0.94 | -13 | 77
O=C(Nc1nnc(-c2ccc3c(c2)CCCC3)o1)c1ccc(Cl)cc1Cl | 113 | 4 | 0.3 | i | 0.79 | . | .
O=C1c2ccccc2C(O)(c2ccccc2)N1C1CC1 (stereo not given) | 107 | . | . | i | 0.94 | . | .
O=C(N1CCN(c2ccccn2)CC1)N1c2ccccc2Sc2ccccc21 | 97 | -12 | 2.8 | . | . | . | .
O=C(CCCC(=O)N(CC(=O)NC1CCCCC1)CC1CCCO1)Nc1ccccn1 (stereo not given) | 99 | 2 | -2.0 | i | 0.96 | 61 | 47
Cc1nc(NC(=O)c2ccccc2)sc1-c1csc(Nc2ccc(Cl)cc2)n1 | 96 | -12 | -0.6 | i | 1.2 | -13 | 131
CN(C)c1ccc(NC(=S)NC(=O)/C=C/c2ccco2)cc1 | 97 | 3 | . | i | 0.87 | -21 | 114

Screening results: PubChem, several laboratories
